Compound activity (PubChem BioAssay)
UUG fidelity: yeast start codon fidelity modulation. activity score, % at 18.7 µM. 0.13% of 350,000 active. S. cerevisiae UUG-firefly luciferase reporter, luminescence/redox ratio;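 active = replicate mean at a twofold rise or more, about +100% in these data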;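 also: firefly luciferase made from a UUG start codon reports start codon fidelity; reporter light over untreated wells divided by growth signal over untreated wells; some hits fall short of that in this replicate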
eIF4H FP inh: inhibitors of RNA binding by human eIF4H. inhibition, % at 35 µM. 0.94% of 290,000 active. Q15056. eIF4H fluorescence polarization binding assay. AID 2012;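 active = 50% or more with normal probe brightness, or confirmed in later tests; inconclusive = above 50% with abnormal brightness, or retests that disagree; inactive = below 50% or failed in later tests; about a fifth of its hits are not listed in these tables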;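 also: calls also rest on retests at 20 µM and on dose response follow-up; 0% = protein and probe with vehicle and 100% = probe without protein; strong numbers were not always called active; many hits fall short of the cut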
Env fusion inh: HIV envelope-mediated fusion inhibition | 1.1% of 360,000 active | AID 651610 | HeLa-JRFL Env/CEM21 cell fusion, luciferase | inhibition, % at 12.3 µM;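 active = mean replicate inhibition score of at least 50 and every replicate individually at or above 50; inconclusive = only one of the two criteria met; inactive = mean below 50 and not all replicates reaching 50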;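 also: 0% = plate neutral controls and 100% = maraviroc near 300 nM; one replicate is shown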
CSC inhib: blocks cancer stem cells; inhibition, % at 7.5 µM; cancer stem cell-like cells viability, luminescence; 1.1% of 300,000 active;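 active = mean at 75% or more and at least half the replicates too; inconclusive = mean and replicates disagree; tested in HMLE shEcad cells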;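 also: 0% = median of negative and 100% = median of positive control wells; the first replicate is given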
PABP FP inh: blocks human PABP binding to poly(A) RNA | P11940 | 1% of 290,000 active | inhibition, % at 35 µM | fluorescence polarization;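 active = 50% or more with normal probe brightness, or confirmed in later tests; inconclusive = above 50% with abnormal brightness, or retests that disagree; inactive = below 50% or failed in later tests; about a fifth of its hits are not listed in these tables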;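 also: calls also rest on retests at 20 µM and on dose response follow-up; controls were probe without protein and protein plus probe with vehicle; some compounds called inactive have numbers as strong as hits; many hits fall short of the cut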
Rce1 inhib: blocks yeast Ras-converting enzyme. AID 2563. yeast membranes, quenched prenylated peptide cleavage fluorescence. calls only. 0.27% of 290,000 active. Q03530;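 active = fall in fluorescence gain of 50% or more versus controls, with final raw signal at or below 3038400; inconclusive = same 50% fall but final raw signal above 3038400; inactive = fall in fluorescence gain under 50%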;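 also: plate controls were neutral control wells for no effect and wells lacking membranes for full effect; tested at 10 µM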
Target sequence (Q03530 whole entry, looked up): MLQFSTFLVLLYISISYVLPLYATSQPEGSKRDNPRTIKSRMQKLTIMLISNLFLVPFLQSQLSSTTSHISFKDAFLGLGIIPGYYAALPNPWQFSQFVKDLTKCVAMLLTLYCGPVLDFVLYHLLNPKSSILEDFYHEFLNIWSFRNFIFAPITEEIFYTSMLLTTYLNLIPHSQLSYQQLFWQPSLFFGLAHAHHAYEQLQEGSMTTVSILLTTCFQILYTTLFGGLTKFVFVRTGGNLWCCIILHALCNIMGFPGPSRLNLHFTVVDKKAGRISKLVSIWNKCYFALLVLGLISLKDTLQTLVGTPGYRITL
MT1-MMP act inh: inhibitors of human MT1-MMP activation. P50281. GFP/RFP ratio change, % at 20 µM. HT1080 RFP-PRO-GFP cells, GFP/RFP ratio fluorescence, overnight; percent of plate control window, DMSO zero. 0.061% of 360,000 active;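 active = GFP/RFP ratio change of at least 30% with cell ATP level not reduced by more than half and red fluorescence within 50% of control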; also: strong numbers were not always called active
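Compound: 20 µM single dose, 1% DMSO / System: HT1080 RFP-PRO-GFP cells / Controls: DMSO and RFP-L50D-GFP cell wells / Read-out basis: GFP/RFP fluorescence ratio / Schedule: overnight compound exposure at 37 °C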
MT1-MMP act inh RFP: recorded beside MT1-MMP act inh, whose call it bears; RFP signal change, %; measured here: RFP expression control read;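 0 = vehicle wells; hits needed this value within 50% of zero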
* = called active by the depositor; i = inactive; ? = inconclusive; . = no result given; & = joins results of further samples; [ ] = dose if it differs, or a comment.

item	structure	Env fusion inh	eIF4H FP inh	PABP FP inh	CSC inhib	MT1-MMP act inh	UUG fidelity	MT1-MMP act inh RFP	Rce1 inhib
1	COC(=O)[C@]1(Cc2ccccc2)N[C@H](c2ccc(-c3cccc(Cl)c3)c(OC)c2)[C@@H]2C(=O)N(C)C(=O)[C@@H]21	-30	.	.	.	-14	-16	-20	.
2	CCC1(C)NC(=O)N(CC(=O)Nc2sc3c(c2C(=O)OC)CCCCC3)C1=O (stereo unspecified)	16	-7	10	-7	5	.	-2	i
3	COC(=O)N(C)C[C@H]1OCc2cnnn2CCCC(=O)N([C@@H](C)CO)C[C@@H]1C	33	.	.	.	0	-13&-8	8	.
4	COc1ccc(CN2CCN(Cc3cccc4nonc34)CC2CCO)c(C)c1C (stereo unspecified)	-1	10	-4	1	3	.	0	i
5	NC(=O)c1ccccc1NC(=O)CS(=O)(=O)Cc1ccccc1	.	-10	-7	-12	-3	-5	0	i
6	Cc1nn(C)c(C(=O)NNC(=S)NC2CCCCC2)c1Br	-21	14	-9	-8	3	.	0	i
7	Cc1ccc(OCCC(=O)Nc2ccc(F)c(F)c2)cc1	-11	-4	-10	4	2	-1	-1	i
8	CCCCCCOc1ccc(/C(N)=N/O)cc1	.	-9	-6	23	-7	.	-6	i
9	CCOC(=O)c1sc(NC(=O)C(CC)Sc2nnc3c4ccccc4n(C(C)C)c3n2)nc1C (stereo unspecified)	-10	-3	-4	.	-6	-9	-5	.
10	C[C@H](O)[C@@H]1C(=O)N2CCc3ccc(N4CCN(C)CC4)cc3[C@@H]2C[C@@H]1N(C)C(=O)NC1CCCCC1	5	.	.	.	1	-19	5	.
11	C=CCNC(=S)NN=C1CCCCCCC1	11	7	38	-10	-3	.	2	i
12	Cc1cc(O)c2c(CN3CCN(Cc4ccccc4)CC3)cc(=O)oc2c1	-12	50	30	1	3	11	-4	i
13	S=c1[nH]cnc2sc(Nc3ccccc3)nc12	-21	2	2	7	0	-26	-5	i
14	COc1ccc(NS(=O)(=O)c2ccc3nc(COc4ccc5ccccc5c4)[nH]c3c2)cc1	0	-1	8	46	2	-29	-10	i
15	O=C1C=CN2CCCCC2CC1 (stereo unspecified)	-10	.	.	-4	-3	-4	-6	.
16	COc1cccc(NC(=O)CSc2nc3ccsc3c(=O)n2-c2ccc(C(=O)O)cc2)c1	27	1	2	-11	2	.	4	i
17	O=C(COC(=O)CCSc1ccc(Cl)cc1)NCc1ccco1	11	1	-6	-2	0	7	7	i
18	CC(C)Cn1c(N)c(C(=O)CSc2ccc3c(c2)OCCO3)c(=O)n(C)c1=O	98*	-10	-4	-5	-17	-14	-26	i
19	Cc1ccc(-n2c(SCC(=O)Nc3ccc(N4CCOCC4)cc3)nc3ccccc3c2=O)cc1	17	0	32	-16	-8	.	-3	i
20	CC(C)OC(=O)/C(=C/c1ccco1)c1ccccc1	1	-5	-8	-14	1	32	2	i
21	COc1cc(OC)c2c(-c3ccccc3)cc(=O)oc2c1C(CCN1CCCCC1)c1ccc2c(c1)OCO2 (stereo unspecified)	-101	-7	-5	-2	-2	-2	-8	i
22	CCOC(=O)c1cnc(SCC)[nH]c1=O	.	-3&-10	2&-3	-1	-3	.	5	i
23	Cn1c(=O)c(=O)n(C)c2cc(S(=O)(=O)N3CCOCC3)ccc21	0	4	3	-11	4	15	5	i
24	COc1ccc(Cl)cc1C(=O)NNC(=O)CSc1nnc2ccccn12	-18	11	13	-11	-4	-26	3	i
25	CCOC(=O)c1c(C)n(C)c2c(C)cc(O)c(OC(C)=O)c12	.	-2	-5	1	-3	-12	-2	i
26	CCOC(=O)N1CCN(S(=O)(=O)CCNC(=O)c2ccc(OC)cc2)CC1	-10	.	.	-6	-1	-10	3	i
27	COc1cccc(CNc2nc3nc(C)cc(=O)n3[nH]2)c1	.	-8	-4	-2	2	-22	8	i
28	COc1ccc(S(=O)(=O)N2CCN(CC(=O)Nc3ccccc3Cl)CC2)cc1	.	-2	-3	-3	-4	12	-2	i
29	COc1ccc(NC(=O)N(C)C[C@H]2Oc3c(NC(=O)Nc4ccccc4)cccc3C(=O)N([C@H](C)CO)C[C@@H]2C)cc1	12[16.7 µM]	.	.	-11	5	0&12	5	.
30	c1cc2c(nn1)CCc1nonc1-2	.	2	0	-12	.	-5	.	i
31	COc1ccccc1CN1CCN(C(=O)c2ccncc2)CC1	.	0	14	-5	0	.	2	i
32	CCOc1ccccc1NC(=O)Cc1coc2ccc(C)cc12	17	8	7	0	2	.	-3	i
33	CCCCC(=O)N=c1sc2cc(S(C)(=O)=O)ccc2n1C	.	-8	-9	-13	-1	.	5	i
34	COc1ccc(N(C)C(=O)c2onc3c2CCCC3)cc1	.	7	15	-4	-2	.	0	i
35	COc1ccccc1-c1nnc(SCC(=O)O)n1-c1ccc(C)cc1	5	-6	8	-15	-4	.	0	i
36	O=C(Nc1ccc(N2CCN(C(=O)c3cccs3)CC2)c(Cl)c1)c1ccco1	?	-14	-3	-4	-2	-14	-15	i
37	COc1cc(C(=O)Nc2c(C(=O)N3CCOCC3)oc3ccccc23)cc(OC)c1OC	21	-10	7	-9	4	-4	5	i
38	CC1CCN(c2ccc([N+](=O)[O-])cc2C(=O)N2CCOCC2)CC1	1	-5	-2	17	1	-2	0	i
39	O=C(NNC(=O)c1ccc([N+](=O)[O-])cc1)c1ccncc1	.	-1	5	-5	6	-17	3	i
40	Cc1cc([N+](=O)[O-])c(C)cc1-c1ccc(/C=N/NC(=O)c2cccnc2)o1	8	4	?	11	-1	.	2	i

Env fusion inh: entries above that show a hit
item	molecule	Env fusion inh	MT1-MMP act inh	UUG fidelity	MT1-MMP act inh RFP	Rce1 inhib
18	CC(C)Cn1c(N)c(C(=O)CSc2ccc3c(c2)OCCO3)c(=O)n(C)c1=O	98*	-17	-14	-26	i

Later entries:
item	structure	Env fusion inh	eIF4H FP inh	PABP FP inh	CSC inhib	MT1-MMP act inh	UUG fidelity	MT1-MMP act inh RFP	Rce1 inhib
41	Cn1cc(Br)c(C(=O)NNC(=O)Cc2ccc(Cl)cc2)n1	-12	11	4	.	-2	0	-2	i
42	CCOc1ccc(CCN2CN(C3CCCCC3)CNC2=S)cc1OCC	7	-3	6	-12	0	.	1	i
43	Cc1cc(C(=O)OCC(=O)Nc2ccccc2C(F)(F)F)on1	-7	.	.	-15	1	-12	4	.
44	Fc1ccc(OCc2nnc(SCCN3CCOCC3)o2)cc1	.	-3	13	-10	-1	-8	3	i
45	CN(Cc1ccco1)C(=O)c1ccc(CNS(=O)(=O)c2ccc3c(c2)C(C)(C)C(=O)N3C)cc1	35	1	-4	-6	-3	-18	-1	i
46	S=C(NCCC1=CCCCC1)NCc1ccco1	-5	-8	-9	.	-7	.	-6	i
47	O=C(O)c1cccc(Nc2ccc3nonc3c2[N+](=O)[O-])c1	-42	-8	16	-6	5	-4	8	i
48	CCCCCCn1nc(C(=O)N(CCOC)c2c(N)n(CCCC)c(=O)[nH]c2=O)c2ccccc2c1=O	12	.	.	.	-7	-9	-3	i
49	COc1ccc(CCNc2cc(C)nc3c(-c4ccccc4OC)cnn23)cc1OC	-28	-1	0	-6	-5	-4	-2	i
50	N/C(=N\OC(=O)c1cccc(F)c1)c1ccccc1	-164	5	0	-12	2	-29	6	i
51	COc1ccc(S(=O)(=O)N2CCN(Cc3ccc(OC)c(OC)c3)CC2)cc1	-9	7	13	-11	9	-1	-3	i
52	Cc1cc(Cl)c(OCCCSc2nc(C)cc(=O)[nH]2)c(Br)c1	.	-10	3	3	3	-17	0	i
53	Brc1ccc(C2NCCS2)cc1 (stereo unspecified)	-8	-5	8	-9	-3	-15	2	i
54	CC(=O)c1sc(NC(=O)c2cccc(N3C(=O)CCC3=O)c2)nc1-c1ccccc1	1	.	.	-5	-2	8	3	i
55	Cc1ccc(NC(=O)c2cccc(S(=O)(=O)N(C)C3CCCCC3)c2)nc1	-24	.	.	-3	2	2	-6	i
56	COc1cc(C(=O)NCc2nnc(SCC(=O)NCc3ccco3)o2)cc(OC)c1OC	13	-9	8	-8	1	-7	0	i
57	CC1CCCC(C)N1C(=O)CSc1nnnn1-c1cccc2c1CCCC2 (stereo unspecified)	-77	2	-6	-1	-2	-9	-6	i
58	CCS(=O)(=O)c1nc(S(=O)(=O)c2ccc(Cl)cc2)c(NCCOC)s1	17	10	7	-6	-1	.	1	i
59	CCOC(=O)c1nc(NCc2ccccc2)c2ccccc2n1	7	3	0	1	0	.	1	i
60	O=C(Cc1ccccc1[N+](=O)[O-])NNC(=O)Nc1ccc2c(c1)OCO2	-183	-8	12	0	-2	-29	2	i
61	COc1ccc(NC(=S)Nc2ccccc2Cl)cn1	25	?	2	14	-3	-19	0	i
62	Cc1ccccc1CSc1nnc(NC(=O)Cc2cccs2)s1	14	32	2	-15	5	.	-1	i
63	CCC(=O)N1CCN(c2ccc(NC(=O)c3ccccc3)cc2)CC1	-14	12	9	4	2	.	4	i
64	CCOC(=O)C1CCCN(Cc2cccs2)C1 (stereo unspecified)	12	5	10	7	0	-12	3	i
65	O=C1CCC(C(=O)OCc2cc(Cl)ccc2OC(F)F)N1 (stereo unspecified)	-114	2	-5	5	-3	-12	3	i
66	O=S(=O)(Nc1ccc(Cl)cc1NS(=O)(=O)c1ccccc1)c1ccccc1	-29	.	.	.	-4	0	-2	.
67	CCn1c(C)cc(C=C2C(=O)c3ccccc3C2=O)c1C	-9	14	18	.	1	.	-2	i
68	O=C(NC(=S)N1CCN(c2ccc([N+](=O)[O-])cc2Cl)CC1)c1ccco1	8	-7	26	.	13	-15	-1	i
69	Cc1ccccc1N1C(=O)CC(c2c[nH]c3ccccc23)C1=O (stereo unspecified)	15	0	6	0	-5	.	2	i
70	O=C1c2ccccc2C(Nc2ccc3nc(-c4cccnc4)[nH]c3c2)N1Cc1ccco1 (stereo unspecified)	24	4	-19	-7	0	-9	3	i
71	O=C(O)CCn1nnc2ccccc21	3	-1	-6	-8	3	5	1	i
72	Cc1cc(=O)[nH]n(CCO)c1=O	-6	-2	-4	-14	4	.	-1	.
73	COc1cccc(NC(=O)CSc2ccc(-c3sc(C)nc3C)nn2)c1	-5	7	6	-6	3	7	-14	i
74	COc1cccc(C(=O)NCCSc2ccc(Br)cc2)c1	7	-6	-2	6	2	.	6	i
75	CC(=O)Nc1cccc(NC(=O)Nc2cccc(Cl)c2C)c1	-1	5	-5	4	-1	.	1	i
